Menin-MLL FL inh: menin-MLL binding inhibition, fluorescein peptide; AID 1766; 290,000 tested, under 10 active; FP activity change, % at 61.4 µM; Fluorescence polarization, fluorescein-MLL peptide displacement from menin; inconclusive = falling polarisation curve, or a change in total fluorescence; inactive = total fluorescence flat and polarisation flat or rising; no compound was filed as active; the % refers to the polarisation; negative = inhibition;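 further: % of control where 0% means no effect; inhibitors lower the polarisation; unlabelled MLL peptide was the positive control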
CtBP-E1A inh: blocks the CtBP interaction with E1A; AlphaScreen GST-E1A/His-CtBP binding, 1536-well; stronger effect = lower value; control for the full effect not named in the record; activity change, % (no concentration beside the values); 0.49% of 340,000 active; AID 651724; in the data active means activity change below about -65%; inconclusive means about -30% to -65%; inactive means above about -30%; further: on the % scale 0 is the no-effect control and ±100 the full control effect; compound concentration not given in the record
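Homogeneous bead-based format: GST-tagged E1A captured on glutathione donor beads, His-tagged CtBP on nickel acceptor beads; compounds precede bead addition by 2 h at 37 °C.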
gsp antagonist: gsp mutant antagonism; gsp-mutant cells, cAMP HTRF, 30 min; control for the full effect not named in the record; Potency, µM (series often up to 76.9 µM), without a hit: at the highest dose activity change, negative = inhibition, hits mostly inhibitors; 0.4% of 340,000 active; active = falling curve of any shape with a large fitted effect; inconclusive = falling curve, mostly with a smaller effect; inactive = flat or rising curve; cell line not stated here;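 further: intracellular cAMP measured with PDE inhibitor Ro 20-1724 present during compound exposure; potency means the concentration at half of the fitted maximal effect; on the % scale 0 is the no-effect control and ±100 the full control effect; nearly all actives have a fitted effect of over 65% in size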
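HTRF cAMP measurement after 30 min RT detection following 30 min, 37C compound treatment alongside […] (added as 300 uM solution) in G418-selected cells seeded at 2000/well and grown 16–24 h.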
gsp ag: gsp mutant agonism; gsp mutant cells, cAMP HTRF, 30 min; control for the full effect not named in the record; Potency, µM (top dose mostly 76.9 µM), for inactives: at the highest dose activation (cAMP increase), hits mostly activators; 0.13% of 340,000 active; AID 624287; active = well fitted activation curve with a large enough effect; inconclusive = small, poorly fitted or top-dose-only effect, or another doubt; inactive = no such curve, though single readings can be large or run the other way; cell line not stated here;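 further: phosphodiesterase inhibitor Ro 20-1724 added with compounds to block cAMP breakdown; potency means the concentration at half of the fitted maximal effect; nearly all actives have a fitted effect of over 60% in size; about a fifth of the inactives were tested at one dose only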
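Cells stably selected in G418 were plated at 2000/well, grown 16-24 hr, then given compounds in DMSO with the PDE inhibitor […] (300 uM solution added) for 30 min at 37C; cAMP was read by HTRF.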
TRPV1 potentiator: enhances activation of the human vanilloid receptor TRPV1 | potentiation, % at 8.33 µM | AID 540277 | Q8NER1 | 0.02% of 320,000 active | TRPV1-expressing cells, Fluo-8 calcium influx, capsaicin EC20 potentiation; host cell line not named in the record; control for the full effect not named in the record; active means potentiation above 80%; inconclusive means 30% to 80%; inactive means below 30%; further: 0% is about no effect
Target sequence (Q8NER1 whole entry, looked up): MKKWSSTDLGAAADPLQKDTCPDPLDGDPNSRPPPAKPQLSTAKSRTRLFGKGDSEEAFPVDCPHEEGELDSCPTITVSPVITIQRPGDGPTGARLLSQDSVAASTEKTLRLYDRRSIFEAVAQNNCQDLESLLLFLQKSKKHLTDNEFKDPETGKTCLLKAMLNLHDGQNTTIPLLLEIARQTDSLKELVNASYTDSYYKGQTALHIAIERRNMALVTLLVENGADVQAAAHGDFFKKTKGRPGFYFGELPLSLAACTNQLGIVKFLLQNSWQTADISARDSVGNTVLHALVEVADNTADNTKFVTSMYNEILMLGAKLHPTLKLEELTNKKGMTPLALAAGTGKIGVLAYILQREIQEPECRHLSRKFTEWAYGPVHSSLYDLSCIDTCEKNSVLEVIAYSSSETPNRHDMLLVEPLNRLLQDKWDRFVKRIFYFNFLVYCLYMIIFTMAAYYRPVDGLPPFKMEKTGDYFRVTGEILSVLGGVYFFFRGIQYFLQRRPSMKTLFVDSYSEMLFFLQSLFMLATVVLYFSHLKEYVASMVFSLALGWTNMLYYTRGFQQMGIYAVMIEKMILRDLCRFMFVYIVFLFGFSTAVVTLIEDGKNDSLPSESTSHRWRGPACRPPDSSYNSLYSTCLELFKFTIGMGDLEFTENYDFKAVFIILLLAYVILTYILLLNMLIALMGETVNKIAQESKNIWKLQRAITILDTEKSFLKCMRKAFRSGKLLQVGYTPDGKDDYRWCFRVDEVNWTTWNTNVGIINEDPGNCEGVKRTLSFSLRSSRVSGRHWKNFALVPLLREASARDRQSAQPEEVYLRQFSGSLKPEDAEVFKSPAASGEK
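Cells expressing TRPV1 were dye-loaded with Fluo-8 and read kinetically: 10 s baseline, 3 min after compound (agonist portion), then 2 min after EC20 capsaicin (allosteric enhancer portion). Calcium-bound dye fluorescence at 480/520 nm.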
Sfp inh: inhibitors of Bacillus subtilis Sfp phosphopantetheinyl transferase; Q9F4F7; Biochemical Sfp PPTase activity, qHTS; Potency, µM, for the others: max response, negative = inhibition, usual class: inhibitors; 3.5% of 310,000 active; AID 1490; active means well fitted inhibition curve with a large enough effect; inconclusive means small, poorly fitted or top-dose-only effect, or another doubt; inactive means no such curve, though single readings can be large or run the other way;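 further: the enzyme is Sfp with the accession as filed and its product quenches rhodamine fluorescence; potency means the concentration at half of the fitted maximal effect; 0% = enzyme reaction without inhibitor and -100% = no enzyme wells; top concentration of the series not given in the record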
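Fluorescence-quenching assay with 15 nM Sfp, 5 uM rhodamine-CoA and 12.5 uM BHQ-2-labelled ybbR peptide in pH 7.6 Hepes/MgCl2 buffer. Enzyme was pre-incubated with compound for 15 min at room temperature. Rate was taken from the 30-min fluorescence change (525/598 nm).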
ClpP mod: qHTS Assay for Activators of ClpP. ATP-dependent Clp protease proteolytic subunit (Bacillus subtilis (strain 168)), P80244. 1.9% of 340,000 active. Potency, µM (top dose mostly 57.5 µM), inactives show at the highest dose activity change, negative = active. AID 651965, 2013. purified B. subtilis ClpP, FRET peptide cleavage, 20 min; active = well fitted falling curve with a large enough effect; inconclusive = small, poorly fitted or top-dose-only effect; inactive = no such curve, though single readings can be large or run the other way; further: potency means the concentration at half of the fitted maximal effect; the source files actives as falling curves though it sought activators and does not explain the sign; nearly all actives have a fitted effect of over 65% in size; many hits overshoot -100%
Target sequence (P80244 whole entry, looked up): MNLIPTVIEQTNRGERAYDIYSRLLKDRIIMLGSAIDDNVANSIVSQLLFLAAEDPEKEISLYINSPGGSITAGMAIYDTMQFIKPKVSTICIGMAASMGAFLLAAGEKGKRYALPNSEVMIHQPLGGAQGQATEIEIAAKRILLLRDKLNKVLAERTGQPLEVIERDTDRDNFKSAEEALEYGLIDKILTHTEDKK
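Purified B. subtilis ClpP, 10 microg/mL final in Tris/HCl pH8 with KCl, BSA, glycerol and Tween-20, cleaved an Abz/nitrotyrosine-quenched decapeptide. Fluorescence (ex 320, em 430) was read at 0 and 20 min at room temperature. Delta was normalized to 5.8 microM ADEP and DMSO/no-enzyme controls.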
An asterisk follows results filed as active; u = inconclusive; x = not tested or not shown; [ ] = remark or other dose. Some of the compounds tested; rates above refer to the full screens.

SMILES	Menin-MLL FL inh	CtBP-E1A inh	gsp antagonist	gsp ag	TRPV1 potentiator	Sfp inh	ClpP mod
CCn1c(NN=O)nc2ccccc21	3.1	u	3%	27%	-23	50µM*	-0.6%
CCSC(=O)N1CCCCCC1	x	2	6%	x	2	x	1.1%
O=C1N[C@@H](Cc2ccccc2)C(=O)N2[C@H]1C[C@H]1c3ccccc3N(OOSc3ccccc3)[C@H]12	x	2	-1%	x	x	x	1.0%
COc1ccccc1NC(=O)N1C[C@@H]2C[C@@H](C1)c1cccc(=O)n1C2	0.0	6	6%	x	4	14%	-1.9%
Cn1nccc1C(=O)N1CCC2(CC1)OCCO2	x	8	1%	0%	-13	7%	1.3%
CC(C)S(=O)(=O)N1Cc2ccccc2-n2nncc2C1	x	-7	x	-39%	x	x	1.0%
O=C(CNC(=O)c1ccccc1)NCC(=O)OCC(=O)c1ccc([N+](=O)[O-])cc1	1.6	6	3%	-3%[15.4 µM]	4	28µM*	x
Oc1cc(Cl)c(Cl)c(Cl)c1	x	4	-14%	x	x	x	-1.8%
COc1ccc(Cn2c(O)c(C=NCCN3CCOCC3)c(=O)[nH]c2=O)cc1	4.6	1	6%	8%	-17	1%	-1.3%
CC(=O)N[C@@H]1CC[C@@]2(O)[C@H]3Cc4ccc(O)c5c4[C@@]2(CCN3CC2CC2)[C@@H]1O5	x	3	3%	x	x	x	0.2%
CC1(C)C2CC=C(CN3CCC(O)CC3)C1C2 (stereo unspecified)	-0.1	0	-1%	-15%	-12	u	1.7%
COc1ccc(-c2nn(CCC#N)cc2C(=O)Nc2ccccc2Br)cc1[N+](=O)[O-]	5.4	-2	-2%	5%[15.4 µM]	7	12%	x
COC(=O)C1=C(c2cc3ccccc3s2)C[C@@H]2CC[C@H]1N2C(=O)NCc1ccco1	x	-1	-17%	x	x	x	1.0%
CCOc1ccc(C(C)=O)cc1Cn1ccsc1=N	4.6	2	21%	-14%[15.4 µM]	-4	-1%	0.5%
CCc1[nH]nc2c1C(c1cccnc1)C(C#N)=C(N)O2 (stereo unspecified)	-6.1	-9	-9%	-47%[inhibitor]	-1	3%	-4.1%
c1ccc2c(c1)CNCc1cnnn1-2	x	7	7%	x	x	x	-2.0%
Cc1nc2sccc2c(=O)n1-c1ccccc1Cl	5.4	4	0%	-68%[inhibitor]	3	1%	1.8%
CC(=O)OC1=CC[C@H]2[C@@H]3CC[C@H]4C[C@H](OC(C)=O)[C@@H](OC(C)=O)C[C@]4(C)[C@H]3CC[C@]12C	x	25	5%	1%	0	x	1.2%
CN1C(=O)C(=Cc2ccccc2OCc2ccc(Cl)cc2)C(=O)N(C)C1=O	10	6	-11%	4%[15.4 µM]	1	50µM*	x
CCc1sc(N(C(=O)Cc2ccccc2)c2ccc(F)cc2)nc1-c1ccccc1	-3.7	-2	-8%	-65%[inhibitor]	-3	5%	-1.4%
Cc1cccc(-n2c(C)nc3cc(C(=O)N4CCC5(CC4)OCCO5)ccc32)c1	-1.8	7	15%	-8%	-1	9%	0.3%
COc1ccc(C(O)(c2ccccc2)c2ccncc2)cc1 (stereo unspecified)	x	10	-10%	-9%	x	x	1.7%
COc1ccc(C=C2C(=O)N(C)C(=O)N(C)C2=O)cc1CSc1ccccn1	16	0	-4%[15.4 µM]	-28%	28	45µM*	12%
COc1ccc(-n2c(C)nc3ccccc3c2=O)c([N+](=O)[O-])c1	-5.9	-2	1%	5%[15.4 µM]	-11	16%	-11%
C=C(C)[C@@H]1[C@H]2OC(=O)[C@H]1[C@]1(O)C[C@H]3O[C@]34C(=O)O[C@H]2[C@]14C	x	8	8%	x	x	x	0.4%
CC(C)Oc1ccc(CCN)cc1Cl	-1.1	3	11%	u	-1	11%	-1.6%
O=C(c1c[nH]c2ccc(S(=O)(=O)N3CCC4(CC3)OCCO4)cc2c1=O)N1CCC2(CC1)OCCO2	0.2	8	4%	38%[15.4 µM]	-8	3%	x
O=c1cc(CN2CCNCC2)nc2sccn12	-7.2	1	-10%	28%[15.4 µM]	-5	18%	-0.7%
CCN1CCN(Cc2cccnc2)CC1	-1.7	6	8%	-13%[15.4 µM]	27	23%	-2.8%
O=C(Nc1ccc(F)cc1)N1CC2CC(C1)c1cccc(=O)n1C2 (stereo unspecified)	-0.5	6	18%	-24%	11	14%	0.5%
CCN(C(=O)COC(=O)c1cc(C)n(C2CC2)c1C)c1ccccc1	x	-2	12%	-8%	-1	x	-0.8%
O=c1[nH]sc2cc(F)ccc12	-0.3	4	-11%	9%[15.4 µM]	-12	3.2µM*	x
CCOc1ccc(C2(C#N)CC[N+](C)(C)CC2)cc1	4.1	0	15%	-12%	2	2%	0.6%
Cc1ccc(O)c(CN2CCN(c3ccccc3)CC2)c1	-0.7	-5	-13%	-3%	-5	14%	0.5%
CCn1c(O)c(C=NCc2cccs2)c(=O)[nH]c1=O	0.0	7	19%	5%	8	24%	-0.1%
COC(=O)CN1C(=O)CN=C(c2ccccc2Cl)c2cc(Br)ccc21	3.1	4	5%	28%	1	4%	x
CC1CCN(C(=O)COC(=O)c2cn(C)c3ccccc23)CC1	x	x	6%	2%	-15	x	-5.0%
Cc1ccc(CNCCc2ccc(F)cc2)s1	-1.3	7	12%	-21%	2	6%	x
NC(=O)OCCSc1nnc(-c2cccc(C(N)=S)c2)o1	4.1	-19	-10%	6%	-26	-3%	-2.3%
Cc1cccc(C(=O)Nc2ccc3c(c2)CC2(C(=O)N(C)C(=O)N(C)C2=O)C2CCCN32)c1 (stereo unspecified)	x	-7	-5%	26%	-1	-23%	-5.9%

3 of these compounds, reformatted:
Every second line gives: Menin-MLL FL inh	CtBP-E1A inh	gsp antagonist	gsp ag	TRPV1 potentiator	Sfp inh	ClpP mod
COc1ccc(C=C2C(=O)N(C)C(=O)N(C)C2=O)cc1CSc1ccccn1
    16	0	-4%[15.4 µM]	-28%	28	45µM*	12%
CCN(C(=O)COC(=O)c1cc(C)n(C2CC2)c1C)c1ccccc1
    x	-2	12%	-8%	-1	x	-0.8%
COc1ccc(-n2c(C)nc3ccccc3c2=O)c([N+](=O)[O-])c1
    -5.9	-2	1%	5%[15.4 µM]	-11	16%	-11%

In the list so far, 2 contain an aryl thioether with sulfur outside any ring:
SMILES	Menin-MLL FL inh	CtBP-E1A inh	gsp antagonist	gsp ag	TRPV1 potentiator	Sfp inh	ClpP mod
COc1ccc(C=C2C(=O)N(C)C(=O)N(C)C2=O)cc1CSc1ccccn1	16	0	-4%[15.4 µM]	-28%	28	45µM*	12%
NC(=O)OCCSc1nnc(-c2cccc(C(N)=S)c2)o1	4.1	-19	-10%	6%	-26	-3%	-2.3%

The list goes on:
SMILES	Menin-MLL FL inh	CtBP-E1A inh	gsp antagonist	gsp ag	TRPV1 potentiator	Sfp inh	ClpP mod
COc1ccc(OC)c(NP(=O)(Oc2ccc(Cl)cc2)Oc2ccc(Cl)cc2)c1	1.3	-1	6%	10%[15.4 µM]	-1	6%	-1.5%
Nc1ccc(C2(c3ccc(N)cc3)CCCCC2)cc1	5.7	11	-16%	28%[15.4 µM]	3	1%	u
C[C@H]1CC[C@@H]2[C@@H](C)[C@H]3[C@H](C[C@H]4[C@@H]5CC=C6C[C@@H](O[C@@H]7O[C@H](CO)[C@H](O)[C@H](O[C@@H]8O[C@H](CO)[C@@H](O)[C@H](O)[C@H]8O)[C@H]7O[C@@H]7O[C@@H](C)[C@H](O)[C@@H](O)[C@H]7O)CC[C@]6(C)[C@H]5CC[C@]34C)N2C1	u	-3	1%	x	-23	-2%	0.4%
COC(=O)C1=C(c2cc3ccccc3s2)C[C@@H]2CC[C@H]1N2C(=O)NC1CC1	x	-18	-8%	5%	x	x	-1.9%
CC1OC(C[N+](C)(C)C)CC1O (stereo unspecified)	x	2	5%	x	13	x	0.5%
CS(=O)(=O)c1ccc(C2=C(CNC(=O)c3ccncc3)[C@H]3CC[C@@H](C2)N3Cc2ccccc2)cc1	x	0	x	-131%[inhibitor]	x	x	-3.1%
C=CCn1c(O)c(C(CC)=NCc2ccc3c(c2)OCO3)c(=O)[nH]c1=O	0.9	-7	-3%	-2%[15.4 µM]	6	-6%	x
CCOC(=O)C(O)(c1ccc(NC(=S)NC(=O)c2ccc(Cl)cc2Cl)cc1)C(F)(F)F (stereo unspecified)	-1.9	-8	-9%	16%[15.4 µM]	-44	-22%	-2.2%
CC(C)(C)c1cc(OC(=O)Cc2ccccc2)ccc1O	1.0	-2	5%	8%	2	9%	-3.4%
O=C1/C(=C/c2ccc([N+](=O)[O-])cc2)N2CCC1CC2	3.4	-2	-3%	u	-3	11%	1.0%
S=c1[nH]nc(-c2ccco2)n1Cc1ccccc1	-0.1	5	10%	0%	11	23%	28µM*
CC1(C)CC(=O)c2cc(OCC(=O)N3CCN(Cc4ccccc4)CC3)ccc2O1	-5.2	3	1%	0%[15.4 µM]	-11	15%	x
Cc1ccc(-c2cc(C(=O)N3CCC4(CC3)OCCO4)no2)cc1	0.2	-8	9%	-8%[15.4 µM]	0	-7%	-5.0%
CCOc1cc2c(cc1OCC)-n1cccc1C(c1ccc(OC)cc1)NC2 (stereo unspecified)	-22	-28	-1%	-7%	9	3%	x
Cn1c(=O)oc2cc(S(=O)(=O)N3CCCC(C(=O)NCc4ccc5c(c4)OCO5)C3)ccc21 (stereo unspecified)	3.3	7	6%	-50%[inhibitor]	0	16%	4.0%
CCN(CC)S(=O)(=O)c1ccc(N=Cc2c(O)n(-c3ccccc3)c(=O)[nH]c2=O)cc1	4.1	-2	0%	-17%	-4	-5%	-16%
COC(=O)C1=C(c2ccc(OC)c(OC)c2)C[C@@H]2CC[C@H]1N2C(=O)N1CCCC1	x	3	10%	0%	29	x	-1.4%
Cc1cc(=O)oc2c(C)c(OCC(=O)N3C[C@H]4C[C@@H](C3)c3cccc(=O)n3C4)ccc12	-2.8	-25	3%	x	-3	-1%	5.4%
CN(C)c1nc(-c2ccccc2)[n+](C)s1	-0.9	5	9%	-8%	0	18µM*	-8.6%
CC1(C)Cc2c(C#N)c(N3CCNCC3)nc(-c3ccco3)c2CS1	2.9	1	8%	-5%[15.4 µM]	-4	4%	x

Screening data from PubChem.
